Compound activity: PubChem, National Center for Advancing Translational Sciences (NCATS)
D2 potentiator = human D2 receptor positive allosteric modulation. P14416. DiscoveRx D2 beta-arrestin cells, luminescence, 90 min; 100% = 57 uM dopamine signal. potentiation, % (no concentration beside the values). actives 0.23% (n = 360,000); active = potentiation of 50% or more; inconclusive = 30% to 50%; inactive = 30% or less;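 note: compound concentration not given in the record; tested on top of an EC20 dose of dopamine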
Target sequence (P14416 whole entry, looked up): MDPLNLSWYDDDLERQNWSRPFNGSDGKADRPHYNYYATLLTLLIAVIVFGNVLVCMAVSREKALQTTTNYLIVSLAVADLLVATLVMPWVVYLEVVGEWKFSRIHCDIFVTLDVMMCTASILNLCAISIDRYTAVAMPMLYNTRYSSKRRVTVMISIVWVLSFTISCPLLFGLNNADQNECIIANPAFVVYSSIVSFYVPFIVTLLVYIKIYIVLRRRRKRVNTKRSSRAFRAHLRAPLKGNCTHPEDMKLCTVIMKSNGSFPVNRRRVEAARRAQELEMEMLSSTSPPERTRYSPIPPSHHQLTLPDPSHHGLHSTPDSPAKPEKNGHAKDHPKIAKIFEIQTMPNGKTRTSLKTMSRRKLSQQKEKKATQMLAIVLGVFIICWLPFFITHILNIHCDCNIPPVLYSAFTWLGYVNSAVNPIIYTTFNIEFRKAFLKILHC
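PathHunter D2 cells, attached overnight at 37 deg C, received compound in DMSO plus dopamine at EC20 (50 nM final) for 90 min at 37 deg C. Beta-arrestin recruitment was read as luminescence after 1 h with detection reagent at ambient temperature.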
ClpP mod = qHTS Assay for Activators of ClpP. purified B. subtilis ClpP, FRET peptide cleavage, 20 min. Potency, µM (doses to about 57.5 µM), for inactives: at the highest dose activity change, negative = active. actives 1.9% (n = 340,000); active = well fitted falling curve with a large enough effect; inconclusive = small, poorly fitted or top-dose-only effect; inactive = no such curve, though single readings can be large or run the other way; note: potency is the fitted concentration of half-maximal effect; the source files actives as falling curves though it sought activators and does not explain the sign; nearly all actives have a fitted effect of over 65% in size; many hits overshoot -100%
Target sequence (P80244 whole entry, looked up): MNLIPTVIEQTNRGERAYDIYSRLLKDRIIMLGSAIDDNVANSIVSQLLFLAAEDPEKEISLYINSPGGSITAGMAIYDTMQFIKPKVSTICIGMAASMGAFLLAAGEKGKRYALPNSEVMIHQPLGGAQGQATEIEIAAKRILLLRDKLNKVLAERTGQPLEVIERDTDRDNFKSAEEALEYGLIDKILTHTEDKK
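Purified B. subtilis ClpP, 10 microg/mL final in Tris/HCl pH8 with KCl, BSA, glycerol and Tween-20, cleaved an Abz/nitrotyrosine-quenched decapeptide. Fluorescence (ex 320, em 430) was read at 0 and 20 min at room temperature. Delta was normalized to 5.8 microM ADEP and DMSO/no-enzyme controls.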
gsp ag = activates gsp, the McCune-Albright syndrome mutation; Potency, µM (highest dose often 76.9 µM), for inactives: top-dose activation (cAMP increase), most hits filed as activators; gsp mutant cells, cAMP HTRF, 30 min; control for the full effect not named in the record; actives 0.13% (n = 340,000); active = well fitted activation curve with a large enough effect; inconclusive = small, poorly fitted or top-dose-only effect, or another doubt; inactive = no such curve, though single readings can be large or run the other way; cell line not stated here;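 note: phosphodiesterase inhibitor Ro 20-1724 added with compounds to block cAMP breakdown; potency is the fitted concentration of half-maximal effect; nearly all actives have a fitted effect of over 60% in size; about a fifth of the inactives were tested at one dose only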
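Cells stably selected in G418 were plated at 2000/well, grown 16-24 hr, then given compounds in DMSO with the PDE inhibitor […] (300 uM solution added) for 30 min at 37C; cAMP was read by HTRF.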
Menin MLL FP FL = menin-MLL binding inhibition, fluorescein peptide; FP activity change, % at 61.4 µM; 290,000 tested, under 10 active; Fluorescence polarization, fluorescein-MLL peptide displacement from menin; AID 1766; inconclusive = falling polarisation curve, or a change in total fluorescence; inactive = total fluorescence flat and polarisation flat or rising; no compound was filed as active; the % refers to the polarisation; negative = inhibition;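 note: % of control where 0% means no effect; inhibitors lower the polarisation; unlabelled MLL peptide was the positive control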
TRPV1 PAM = enhances activation of the human vanilloid receptor TRPV1; Q8NER1; TRPV1-expressing cells, Fluo-8 calcium influx, capsaicin EC20 potentiation; host cell line not named in the record; control for the full effect not named in the record; potentiation, % at 8.33 µM; actives 0.02% (n = 320,000); AID 540277; active means potentiation above 80%; inconclusive means 30% to 80%; inactive means below 30%; note: 0% is about no effect
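Cells expressing TRPV1 were dye-loaded with Fluo-8 and read kinetically: 10 s baseline, 3 min after compound (agonist portion), then 2 min after EC20 capsaicin (allosteric enhancer portion). Calcium-bound dye fluorescence at 480/520 nm.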
Sfp PPTase inh = blocks B. subtilis Sfp PPTase activity | Biochemical Sfp PPTase activity, qHTS | Potency, µM, for inactives: max response, negative = inhibition, most hits filed as inhibitors | actives 3.5% (n = 310,000) | AID 1490; active = well fitted inhibition curve with a large enough effect; inconclusive = small, poorly fitted or top-dose-only effect, or another doubt; inactive = no such curve, though single readings can be large or run the other way;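 note: the enzyme is Sfp with the accession as filed and its product quenches rhodamine fluorescence; potency is the fitted concentration of half-maximal effect; 0% = enzyme reaction without inhibitor and -100% = no enzyme wells; top concentration of the series not given in the record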
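Step 1, compound plus 15 nM Sfp-PPTase, 15 min, room temperature. Step 2, add rhodamine-CoA (5 uM) and BHQ-2-YbbR (12.5 uM). Step 3, read 525/598 nm fluorescence at 0 and 30 min.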
gsp antagonist = antagonists of gsp mutant (McCune-Albright syndrome); gsp-mutant cells, cAMP HTRF, 30 min; control for the full effect not named in the record; Potency, µM (titrated, usually from 76.9 µM), for inactives: top-dose activity change, negative = inhibition, usual class: inhibitors; actives 0.4% (n = 340,000); active = falling curve of any shape with a large fitted effect; inconclusive = falling curve, mostly with a smaller effect; inactive = flat or rising curve; cell line not stated here;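 note: intracellular cAMP measured with PDE inhibitor Ro 20-1724 present during compound exposure; potency is the fitted concentration of half-maximal effect; % is set by controls: 0 for no effect and ±100 for the full control effect; nearly all actives have a fitted effect of over 65% in size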
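Cells, 2000/well, grown 16–24 h in DMEM 10% FBS with 0.5 mg/ml G418, then compounds plus […] (300 uM addition stock), 30 min at 37C. cAMP read by HTRF (cAMP-d2 and anti-cAMP antibody-K in lysis buffer) after 30 min RT.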
Starred values were filed as active, the others as inactive; ? = inconclusive; · = not tested or not shown; [ ] = remark or other dose.

molecule	gsp antagonist	ClpP mod	D2 potentiator	Menin MLL FP FL	TRPV1 PAM	gsp ag	Sfp PPTase inh
CCOC(=O)C1CCCCN1Cc1ccc(F)c(Br)c1 (stereo not given)	-1.0%	-0.5%	-16.9	5.1	0.5	-25.8%	63.1µM*
c1ccc(-n2nnnc2SCc2cn3ccccc3n2)cc1	9.5%	-5.5%	-8.5	0.4	10.4	18.1%	-27.5%
C[C@@H]1CN(c2nc3nonc3nc2N2CCSCC2)C[C@H](C)O1	-11.8%	·	1.4	4.5	1.9	-19.0%	11.5%
COc1ccc(N=c2oc3c(OC)cccc3cc2C(=O)NCc2ccco2)cc1OC	-5.0%	-0.2%	-12.3	5.6	8.7	-55.0%[inhibitor]	?
CCCN(CCC)S(=O)(=O)c1ccc(C(=O)NCc2n[nH]c(=S)n2-c2ccc(Cl)c(Cl)c2)cc1	?	2.0%	-21.0	-2.4	10.2	-5.4%	9.6%
Cc1ccc(C2CC(c3cccs3)=NN2C(=O)CCl)cc1 (stereo not given)	-5.7%	·	-4.6	-0.5	-4.2	-9.5%[15.4 µM]	-0.4%
Cc1cc(NS(=O)(=O)c2ccc(NC(=O)C(C)N3C(=O)c4ccccc4C3=O)cc2)nc(C)n1 (stereo not given)	-5.6%	-0.3%	-7.2	0.3	-4.9	3.1%	18.9%
Cc1ccc(C(=O)N(CC(=O)NC2CCCC2)c2ccc3c(c2)OCCO3)s1	1.8%	0.2%	-0.9	-1.2	-2.7	-7.7%	5.0%
Cc1ccc[n+](CC(=O)c2ccc(Br)cc2)c1	11.0%	-0.3%	-2.5	1.1	15.4	4.5%	13.8%
CCc1ccc(-c2csc3ncn(CC(=O)N4CCOCC4)c(=O)c23)cc1	-6.3%	-4.8%	14.1	0.9	-1.1	-28.7%	16.8%
COc1ccc(C=C2CS(=O)(=O)CC(=Cc3ccc(OC)cc3)C2=O)cc1	·	-1.0%	-14.2	·	·	-11.6%	·
Cc1c(C(=O)O)sc2nc(-c3cccs3)cc(C(F)(F)F)c12	-20.9%	·	-6.2	0.6	10.2	-25.2%[15.4 µM]	9.8%
COc1ccc(-c2nc(-c3ccc(NC(=O)c4ccc(Br)o4)cc3)no2)cc1OC	3.2%	-20.5%	1.4	4.0	-2.7	3.0%	27.1%
CCc1sc(NC(=O)CCC(=O)O)nc1-c1cc2ccccc2oc1=O	3.1%	-1.8%	-3.4	1.9	-3.0	-0.3%	16.7%
CCOC(=O)c1cnc(SCC(=O)OCC(=O)N(CC)C2CCS(=O)(=O)C2)nc1N (stereo not given)	7.5%	-29.9%	-15.5	·	1.9	0.1%	·
Cc1ccc(S(=O)(=O)N2CCOCC2)cc1NC(=O)COC(=O)Cn1c(C)csc1=O	1.0%	-0.9%	-28.8	·	3.9	0.5%	·
CC1CC(C)CN(CC(=O)Nc2ccc(S(N)(=O)=O)cc2)C1 (stereo not given)	4.8%	-2.8%	-3.9	1.0	0.8	-30.8%[inhibitor]	12.3%
CCn1cc(/C=C/C(=O)Nc2c(C)nn(Cc3ccccc3C)c2C)cn1	14.7%	-2.5%	-6.9	-1.2	26.7	13.3%	-16.5%
CC1(Cc2cn(CCC#N)c3ccccc23)OCCO1	7.7%	-27.6%	-5.2	3.0	14.0	-10.4%	11.8%
COc1ccc(C2=NO[C@@H]3C(=O)N(Cc4ccccc4)C(=O)[C@H]23)cc1OC	?	30.8%	-1.2	0.8	18.5	-11.7%	0.0%
Cc1ccc(C)c(N2CCN(C(=O)c3cccn4c(=O)c5sccc5nc34)CC2)c1	-26.4%	·	-5.6	-2.9	26.0	?	9.2%
O=C(O)CCC(=O)Nc1ccc2c(c1)oc1ccccc12	-4.1%	-1.4%	-2.7	2.4	8.2	2.6%	12.8%
COc1ccc([N+](=O)[O-])cc1NC(=O)C(C)OC(=O)C1CC(=O)N(Cc2ccco2)C1 (stereo not given)	-21.1%	?	-9.4	·	-12.1	-24.9%	·
CCCC1=C(C(=O)OCC)C(c2ccc(O)cc2)n2ncnc2N1 (stereo not given)	-17.8%	-0.7%	-1.9	2.1	-8.5	1.4%	10.2%

Compound profiles (already shown). Screens in order: gsp antagonist, ClpP mod, D2 potentiator, Menin MLL FP FL, TRPV1 PAM, gsp ag, Sfp PPTase inh
COc1ccc(C2=NO[C@@H]3C(=O)N(Cc4ccccc4)C(=O)[C@H]23)cc1OC across the screens: ?, 30.8%, -1.2, 0.8, 18.5, -11.7%, 0.0%
CC1CC(C)CN(CC(=O)Nc2ccc(S(N)(=O)=O)cc2)C1 (stereo not given) across the screens: 4.8%, -2.8%, -3.9, 1.0, 0.8, -30.8%[inhibitor], 12.3%

Further entries follow:
molecule	gsp antagonist	ClpP mod	D2 potentiator	Menin MLL FP FL	TRPV1 PAM	gsp ag	Sfp PPTase inh
CC(=O)c1ccc(NC(=O)CCNS(=O)(=O)c2ccccc2F)cc1	3.9%	·	-3.5	-2.8	15.8	?	2.7%
COCCCNC(=O)CCn1c(=O)c2ccccc2n(CC(=O)Nc2ccc(C)cc2C)c1=O	4.6%	-5.6%	-1.2	3.5	17.9	-45.0%[inhibitor]	15.2%
O=C(Nc1cnn(Cc2ccc(F)cc2)c1)c1noc2c1CCCC2	8.2%	-0.8%	-8.6	3.3	2.7	-28.0%	11.1%
S=C1NCN(Cc2cccnc2)CN1c1cccc2ccccc12	5.3%	·	-5.3	2.4	29.2	-3.2%[15.4 µM]	9.1%
CCN(CC)S(=O)(=O)c1cccc(NC(=O)COC(=O)C2COc3ccccc3O2)c1 (stereo not given)	-0.6%	0.9%	-11.8	5.1	-1.2	14.8%	6.3%
O=C(CSCc1cnn(-c2ccccc2)c1-n1cccc1)NCc1cccs1	-6.2%	-2.4%	-0.4	5.1	-11.2	2.7%	-13.8%
COc1cc(/C=N/NC(=O)CCc2n[nH]c(=O)[nH]c2=O)cc(OC)c1OC	3.8%	-17.6%	5.2	2.0	3.9	-0.5%	1.4%
CSc1nc2cc(C)nn2c(-c2ccc(C(C)(C)C)cc2)c1C#N	2.6%	·	-2.0	4.7	11.7	?	18.6%
Cc1nn(C)c(C)c1NS(=O)(=O)c1ccccc1Cl	7.4%	-2.8%	1.2	·	-1.3	-4.0%	·
O=C(Cn1nc2sc3ccccc3n2c(=O)c1=O)c1ccc(Cl)cc1	7.6%	·	-0.5	-0.6	-3.2	-0.4%[15.4 µM]	16.7%
Cc1cnc(C(=O)OCC(=O)C23CC4CC(CC(C4)C2)C3)cn1	-6.5%	-3.2%	-9.4	-1.1	-4.6	2.4%	3.6%
CCCCCCCNc1nc(Cl)nc(NCCO)n1	13.3%	-0.7%	-0.7	-4.3	12.1	?	2.3%
CCn1nnc(NC(=O)C(C)(c2ccccc2)c2ccccc2)n1	9.4%	-0.1%	1.2	-5.9	8.7	-0.9%[15.4 µM]	5.7%
CCOC(=O)C1=c2/c(=C/c3ccncc3)c(N)c(C(=O)OC)n2C(=O)C(c2ccncc2)S1 (stereo not given)	-10.3%	-3.0%	-9.8	-3.4	-1.7	-0.4%[15.4 µM]	-5.2%
COC(C[C@@H]1O[C@@H]1C(=O)[C@@H](C)OCc1ccccc1)OC	8.9%	0.2%	-0.9	·	·	·	·
O=C(Nc1ccc(Cl)cn1)c1ccc(COc2ccccc2Br)o1	-25.6%	·	-7.4	2.0	-5.7	-20.1%	-4.6%
C=CCn1c(=O)/c(=C/c2ccc(Cl)cc2)s/c1=C(/C#N)c1nnc2n1CCCCC2	0.0%	0.8%	-17.4	3.1	-6.5	9.8%	-14.4%
O=C(CSc1nnc(-c2cc(-c3cccs3)nc3ccccc23)o1)NC1CCCCC1	-9.2%	?	1.9	2.2	6.8	-24.3%	?
CCN1/C(=C/c2ccc3cc(C)ccc3[n+]2CC)Sc2ccc3sccc3c21	?	-2.1%	-4.6	·	·	?	·
CC1=C(C(=O)Nc2ccc(C)cc2C)C(c2cccs2)NC(=S)N1 (stereo not given)	-1.4%	0.3%	24.1	0.9	2.5	10.8%	15.9%
O=C1N(c2ccc3c(c2)OCCO3)C(c2ccccc2)C1(F)F (stereo not given)	-2.6%	-1.6%	-2.3	-0.2	-13.6	1.5%[15.4 µM]	11.4%
Cc1ccccc1NC(=O)CNC(=O)c1ccc(C(F)(F)F)cc1	12.0%	0.8%	-9.9	10.2	-4.1	-2.3%[15.4 µM]	7.7%
CCN(CC)C(=O)c1ccc(C(=O)c2c(C)cc(C)cc2C)cc1	1.0%	-2.8%	-2.0	3.2	-5.5	-15.4%	-2.8%
COc1ccc(S(=O)(=O)NC(CC(=O)N2CCc3ccccc32)c2ccco2)cc1 (stereo not given)	-15.5%	-3.4%	-8.2	0.4	17.7	19.8%	17.9%
COc1ccc(OC)c(-n2c(-c3cccc(C)c3)n[nH]c2=S)c1	-7.6%	·	-8.4	-0.3	-4.7	0.4%[15.4 µM]	79.4µM*
COc1ccc(CCNC(=O)c2ccc(-c3ccc([N+](=O)[O-])cc3Cl)o2)cc1	-25.0%	0.3%	12.0	7.5	4.1	3.5%	50.1µM*
Cc1cc(N2CCN(c3ccccc3)CC2)nc(-n2nc(C)cc2C)n1	-8.2%	0.5%	-1.8	1.7	6.1	-53.1%	8.1%
COc1ccc(NC(=O)Nc2cccs2)cc1OC	-3.3%	-3.6%	-4.1	?	-13.8	-4.6%	44.7µM*
Cc1cccn2cc(CNC(=O)CC3CCCC3)nc12	-8.8%	31.6µM*	4.2	1.0	-3.4	4.6%	27.8%
CC(C)C1=CC(=Nc2ccc(S(N)(=O)=O)cc2)C=C(C(C)C)C1=O	-7.8%	0.9%	12.3	-0.6	-1.7	-9.2%	4.6%
COc1ccc(C)cc1NC(=O)C1CCN(S(=O)(=O)c2cccc3cccnc23)CC1	?	-2.2%	-1.3	4.8	10.4	0.9%	-5.9%
COCCn1c(SCC#N)nnc1-c1ccccc1O	0.5%	0.3%	-1.4	1.2	-18.9	16.6%	5.6%
COCc1c(C(=O)N/N=C/C2CC=CCC2)nnn1-c1nonc1N (stereo not given)	8.5%	109.6%	-3.2	5.0	-1.8	13.7%	-0.6%
